NPYLR7 agonist – activates Aedes aegypti NPYLR7 receptor; activation, % at 10 µM; HEK293T NPYLR7/Galpha15, GCaMP6s calcium fluorescence; 0.15% of 270,000 active; in the data active means activation above about 40%;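 further: 0% = vehicle and 100% = reference agonist at the receptor; some compounds past the cut are filed as inactive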
NPYLR7 agonist max-min – further read-out of NPYLR7 agonist, marked with its call; activation, %; measured here: Max-Min RFU normalised activation; some inactives read as strong as hits;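 span of the calcium signal over five minutes; 0% = vehicle and 100% = native peptide agonist; compound fluorescence can raise it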
* = called active by the depositor. Not all compounds are listed; rates above refer to the full screens.

SMILES	NPYLR7 agonist	NPYLR7 agonist max-min
CCc1nn(C(C)C(=O)NCCCN(CC)CC)c(=O)c2cc3occc3n12 (stereo not drawn)	2	2
Cc1cccc(Oc2coc3cc(OCC(O)Cn4nc(C)c(C)c4C)ccc3c2=O)c1 (stereo not drawn)	0	3
Cc1c(C(=O)N2CCCCC2C(N)=O)oc2ccc(Br)cc12 (stereo not drawn)	7	5
NC(=O)[C@H](Cc1c[nH]c2ccccc12)NC(=O)C1CCCCC1C(=O)N1CCc2c([nH]c3ccccc23)C1 (stereo partly drawn)	-12	-23
CCc1nccn1CCCN1CC(C(=O)O)CC1=O (stereo not drawn)	2	38
CCCN(Cc1cccnc1)Cc1cccn1-c1ncccn1	26	12
CCN(CC)C(=O)C1(N)CCCCC1	2	3
COc1ccc(Cn2cnc3c4cc(C)ccc4n(CC(=O)Nc4ccccc4)c3c2=O)cc1	-4	-10
CN(CCn1nc2ccccn2c1=O)Cc1ccsc1	4	2
CN(C1CCCCC1)S(=O)(=O)c1ccc(=S)[nH]c1	12	10
CC(=O)N1CCCN(c2ccncc2N)CC1	16	13
Cn1c(SCC2NS(=O)(=O)N=C3CCCCCN32)nnc1-c1ccccc1 (stereo not drawn)	-4	-7
CC(=O)c1ccc2c(c1)N(Cc1cccc(F)c1)C(=O)C(C)S2 (stereo not drawn)	-1	-4
NCc1nc(-c2cccc([N+](=O)[O-])c2)no1	18	10
O=C(CNc1ccccc1Cl)Nc1c(O)cccc1F	-5	-8
CCOc1ccc(N2CCN(CC(=O)NCCCN3CCCC3=O)C2=O)cc1	2	1
O=C(CCc1ccccc1)Nc1nnc(SCC(=O)c2ccc(Br)cc2)s1	4	4
CC1(C)O[C@@H]2C[C@@](OCc3cccc(F)c3)(C(=O)NCC3CCCO3)CC(OCc3ccc(C(F)(F)F)cc3)[C@@H]2O1 (stereo partly drawn)	4	9
Cc1csc(C(C)(C)NC(=O)CCc2cccnc2)n1	14	6
Cc1ccc(CN2C(=O)COCc3cc(-c4cccc(O)c4)ccc32)cc1	11	5
COc1ccccc1N1CCN(c2cc(Oc3ccccc3)ncn2)CC1	0	1
COc1ccc(C2c3cccn3CCCN2Cc2cc(OC)cc(OC)c2)cc1 (stereo not drawn)	28	27
Cc1ccc(C2CC(C(F)(F)F)n3ncc(C(=O)NCCCn4ccnc4)c3N2)cc1 (stereo not drawn)	-9	-11
COC(=O)Cn1c(=O)c2c(nc3n2CC(C)CN3C2CCCCC2)n(C)c1=O (stereo not drawn)	-1	-4
CC1CC2CCCCC2N1C(=O)NCc1cccnc1 (stereo not drawn)	2	0
CCc1ccccc1NC(=O)C(C)N1C(=O)c2ccccc2S1(=O)=O (stereo not drawn)	8	2
O=C(N=C1N=C2C=CC=CN2Cc2ccccc21)c1cc(F)c(F)c(F)c1F	-1	-4
CC1CC(C)CN(Cc2csc(NC(=O)CNC(=O)c3ccccc3Cl)n2)C1 (stereo not drawn)	-1	4
Cc1nc2ccccc2c(=O)n1C(C)C(=O)N1CCN(c2ncccn2)CC1 (stereo not drawn)	-4	-7
CCCN(CC1CC1)S(=O)(=O)NCc1cccs1	14	12
CCOc1ccc(-c2ccccc2NC(=O)COC)cc1	0	-13
CCc1nnc(CN(CC)C(=O)c2cnn3c2CCCC3)o1	3	2
CC1(Cc2cccc(C(F)(F)F)c2)C(=O)Nc2cc(Cl)ccc21 (stereo not drawn)	4	1
O=c1c2c3c(sc2[nH]c(=S)n1C1CCCC1)CCC3	-5	-5
O=C(NCC(F)(F)F)c1ccccc1C(=O)c1ccc(Cl)cc1	-2	-3
Cc1ncc([N+](=O)[O-])n1CCNC(=O)CSc1ccc(C(F)(F)F)cn1	-6	-11
COc1ccc(C)c2sc(N(CCCN(C)C)C(=O)c3cccc([N+](=O)[O-])c3)nc12	1	-2
c1cc(-n2ccnc2)cc(-n2cnnc2)c1	20	6
CCCc1ccc(OCC(O)CN2CCN(CCO)CC2)cc1 (stereo not drawn)	13	2
O=C(NCCNC(=O)[C@H]1CCCN1C(=O)c1cccc(Br)c1)c1ccc(F)cc1	20	18
OCc1cc(F)cc(CO)c1O	0	1
O=C(NCc1ccc(Cl)cc1)c1cc2ccccc2oc1=O	-1	5
Nc1nc(SCC(=O)NCC2CCCO2)[nH]c(=O)c1NC(=O)c1ccc(F)c(F)c1 (stereo not drawn)	5	5
COc1ccccc1NC(=O)c1cccnc1NC(C)C	-6	-12
CC1Cc2cc(-c3cc(CC(=O)O)no3)ccc2O1 (stereo not drawn)	1	1
CCOc1ccc(CN2CCCC(N3CCN(c4ccc(F)cc4)CC3)C2)cc1CO (stereo not drawn)	4	-1
C#CCNC(=O)CN1C(=O)[C@@H](NC(=O)C2CCN(C)CC2)CN(Cc2ccoc2)c2ccccc21	7	4
O=c1[nH]ccc2c(O)cccc12	-1	-12
N[C@@H](C(=O)N[C@@H]1C(=O)N2C(C(=O)O)=C(CSc3cn[nH]n3)CS[C@H]12)c1ccc(O)cc1	-10	-18
Cc1ccsc1CN(C)Cc1ccc(C(=O)Nc2cnn(C)c2)cc1	21	14
NS(=O)(=O)CC1CCCN(CC(O)c2cccc(Cl)c2)C1 (stereo not drawn)	7	7
COc1ccc(N(C)S(=O)(=O)c2ccc(OC)c(N3CCN(C(=O)c4ccccc4OC(F)(F)F)CC3)c2)cc1	12	17
Cc1cnc(C)c(N2CCN(Cc3cccc(Cn4cccn4)c3)CC2)n1	2	2
CCS(=O)(=O)NC1CCN(c2nc(C(F)(F)F)nc3sc(C)c(C)c23)CC1	0	-4
COc1ccc(-c2cnc3ncnn3c2N2CCN(C(=O)c3cc(C(C)(C)C)nn3C)CC2)cc1OC	-5	-5
CCOc1cccc(NC(=O)C2CC(=O)N(C)C(=Nc3cccc(OC)c3)S2)c1 (stereo not drawn)	-1	-2
CC(C)CC1Nc2ccccc2-c2nc(=O)c(-c3ccc(F)cc3)nn21 (stereo not drawn)	1	61
COc1ccc(-c2cccc(-c3ccc(NC(=O)c4cc(OC)c(OC)c(OC)c4)cc3)n2)cc1	4	1
CSc1sc(C(=O)O)c(C)c1C(C)=O	4	0
O=C1CCC(C(=O)N2CCCCCCC2)CN1CCc1ccccc1 (stereo not drawn)	4	2
(more compounds)
SMILES	NPYLR7 agonist	NPYLR7 agonist max-min
CC1=NC2=C(C(=O)CCC2)C(c2ccccc2[N+](=O)[O-])C1C(=O)OC1CCCCC1 (stereo not drawn)	2	2
CCN1CCN(C(=O)C2CCC(CNc3c(N4CCC(C)CC4)c(=O)c3=O)CC2)CC1 (stereo not drawn)	7	3
Cn1cc(Br)c(C(=O)O)n1	-2	3
CC(C)c1ccc(C#N)c(SC2CC(=O)N(c3ccc(Br)cc3)C2=O)n1 (stereo not drawn)	-2	-2
CN(c1ccc(Br)cn1)S(=O)(=O)c1ccc(Cl)c(C(F)(F)F)c1	1	0
COCCN(Cc1csc(COc2cc(C)cc(C)c2)n1)C(=O)c1ccccc1F	-3	4
O=C(Nc1ccc(-n2cncn2)cc1)C1CC2CCC1C2 (stereo not drawn)	6	2
O=C(NCCc1ccccc1)C1CCN(C2CCN(CC3CC=CCC3)CC2)CC1 (stereo not drawn)	8	4
CCc1nc2ccc(C(=O)N(CC)CCN(C)C)cn2c1N(CC)CCOC	-7	-11
O=C(CSc1nnc(CNC(=O)c2ccco2)n1-c1ccc(F)cc1)Nc1ccccc1C(F)(F)F	-6	-3
Cc1cc(C)c(NC(=O)CSc2nc3c([nH]c4ccccc43)c(=O)n2C)c(C)c1	1	13
CS(=O)(=O)N1CCC(C(=O)Nc2ccccc2SCc2ccsc2)CC1	1	-1
Cc1cc(=S)n2c([nH]c3ccccc32)c1C#N	-8	-12
O=C(c1ccc(Cl)cc1)N1N=C2CCCCCC2C1(O)C(F)(F)F (stereo not drawn)	-3	3
CCC(C)(C)OCC(O)CN1C(C)(C)CCCC1(C)C (stereo not drawn)	0	11
FC(F)(F)Oc1cccc(Cn2cnnc2)c1	-2	13
COCCNC(=O)c1c(C)noc1-c1ccc2c(c1)OCO2	-2	5
COc1cc(CN2CCCn3cccc3C2c2ccc(Cl)cc2)cc(OC)c1 (stereo not drawn)	-2	3
COc1ccccc1CC(=O)N1CCOC(COCc2ccccc2F)C1 (stereo not drawn)	26	28
COc1ccc2nc(N(CCCN3CCOCC3)C(=O)c3cc(C)n(C)n3)sc2c1	4	1
C=C(C)Cn1c(=O)c2c(nc3n2CC(C)=NN3CCc2ccccc2)n(C)c1=O	2	7
CC(C)CCNC(=O)NC(=O)CSc1nc(N)cc(=O)[nH]1	3	11
O=C(NC1(CN2CCOCC2)CCCCC1)C(=O)c1ccco1	3	7
CC(=O)Nc1cccc2c1CCN(C(=O)NCCOc1ccc(F)cc1)C2	-6	-7
Cc1cc(NC(=O)Cc2cccs2)n(-c2nc(-c3ccc(Cl)cc3)cs2)n1	-8	-13
CCc1ncc(CNCC(=O)OC)s1	21	8
CC(=O)N1CCCC1C1CCCN1CC(=O)NCCC#N (stereo not drawn)	5	5
Cc1cc(N2[C@@H]3CC[C@H]2CC(O)C3)nc(N2CCOCC2)n1 (stereo partly drawn)	-4	-7
CCSc1nc(CC(=O)NCC2CCS(=O)(=O)C2)cs1 (stereo not drawn)	-8	-16
Cc1nc2c(Cl)cccc2n1OCC(=O)NCCc1ccccc1	-3	-3
NC(=O)CSc1nnc2ccc(-c3cccs3)nn12	-14	-15
CC(C)n1c(Br)nc2c1c(=O)n(C)c(=O)n2C	0	5
CS(=O)(=O)c1ccc(NS(=O)(=O)c2ccc(Br)cc2Cl)cc1	-3	-10
CC(=O)Nc1ccc(C(F)(F)F)cc1NC(=O)c1ccc(NC2CC2)nc1	9	6
CN(C)c1ccc(N2C(=O)CC(Sc3ncccc3C(=O)O)C2=O)cc1 (stereo not drawn)	-6	-16
COc1ccc(C2C(C#N)C(=N)SC(=N)C2C#N)c(OC)c1OC (stereo not drawn)	4	12
CCOCCCn1c(SCc2cc(Cl)ccc2Cl)nc2cc(C(=O)OCC)ccc21	1	-3
C=C(C)COc1ccc(-c2ncncc2-c2ccc(OC)c(OC)c2)c(O)c1	-2	-7
CCN(CC)CCNC(=O)c1cc2ccccc2nc1Cl	6	4
C=C(C)Cn1c(CCNC(=O)Cc2ccccc2)nc2ccccc21	3	-4
CC(C)=CCC/C(C)=C/C(=O)N1CCC(n2c(=O)[nH]c3ccccc32)CC1	-9	-14
O=C(O)c1cc2n(n1)CCN(Cc1ccc(Cl)c(Cl)c1)C2=O	-10	-5
CN(C)S(=O)(=O)N1CCC(Oc2cccc(C(=O)N3CCCCCC3)c2)CC1	4	1
OC1C(O)[C@H](Nc2ccc(Br)cc2)OC[C@H]1O (stereo partly drawn)	17	8
CC(/C=C1\N=C(c2ccccc2Br)OC1=O)=C\c1ccccc1	1	-2
Cc1nc(CNS(=O)(=O)c2c(C)c(C)c(C)c(C)c2C)cs1	-3	-1
Cc1n[nH]c(C)c1S(=O)(=O)Nc1ccc(-n2ccnc2C)c(F)c1	10	8
CCOC(=O)C1(C)CCCCN1C(=O)c1ccc(F)c(Cl)c1 (stereo not drawn)	-1	-3
CCC(C)n1nc(C)c2[nH]c(-c3c(C)cc(OC)c(OC)c3OC)nc21 (stereo not drawn)	21	1
O=C(CN1C(=O)c2ccc([N+](=O)[O-])cc2C1=O)Nc1ccc2ccccc2c1	-7	-10

Reformatted with two lines to a compound: entries from further up
Order of values: NPYLR7 agonist | NPYLR7 agonist max-min
CCC(C)n1nc(C)c2[nH]c(-c3c(C)cc(OC)c(OC)c3OC)nc21 (stereo not drawn)
  21 | 1
O=C(CN1C(=O)c2ccc([N+](=O)[O-])cc2C1=O)Nc1ccc2ccccc2c1
  -7 | -10

Gathered by group, the entries above with two or more sulfur atoms.
SMILES	NPYLR7 agonist	NPYLR7 agonist max-min
CN(C1CCCCC1)S(=O)(=O)c1ccc(=S)[nH]c1	12	10
Cn1c(SCC2NS(=O)(=O)N=C3CCCCCN32)nnc1-c1ccccc1 (stereo not drawn)	-4	-7
O=C(CCc1ccccc1)Nc1nnc(SCC(=O)c2ccc(Br)cc2)s1	4	4
CCCN(CC1CC1)S(=O)(=O)NCc1cccs1	14	12
O=c1c2c3c(sc2[nH]c(=S)n1C1CCCC1)CCC3	-5	-5
N[C@@H](C(=O)N[C@@H]1C(=O)N2C(C(=O)O)=C(CSc3cn[nH]n3)CS[C@H]12)c1ccc(O)cc1	-10	-18
CCS(=O)(=O)NC1CCN(c2nc(C(F)(F)F)nc3sc(C)c(C)c23)CC1	0	-4
CSc1sc(C(=O)O)c(C)c1C(C)=O	4	0
CS(=O)(=O)N1CCC(C(=O)Nc2ccccc2SCc2ccsc2)CC1	1	-1
Cc1cc(NC(=O)Cc2cccs2)n(-c2nc(-c3ccc(Cl)cc3)cs2)n1	-8	-13
CCSc1nc(CC(=O)NCC2CCS(=O)(=O)C2)cs1 (stereo not drawn)	-8	-16
NC(=O)CSc1nnc2ccc(-c3cccs3)nn12	-14	-15
CS(=O)(=O)c1ccc(NS(=O)(=O)c2ccc(Br)cc2Cl)cc1	-3	-10
Cc1nc(CNS(=O)(=O)c2c(C)c(C)c(C)c(C)c2C)cs1	-3	-1
